# Screens from PubChem BioAssay.
# VDR inh – blocks the human vitamin D receptor | Potency, µM, for the others: max response, negative = inhibition, actives largely listed as inhibitors | P11473 | VDR-SRC2-3 peptide fluorescence polarization, 2 h | 400,000 tested, 0.93% active; active = well fitted inhibition curve with a large enough effect; inconclusive = small, poorly fitted or top-dose-only effect, or another doubt; inactive = no such curve, though single readings can be large or run the other way; note: series mostly up to about 120 µM
# Target sequence (P11473 whole entry, looked up): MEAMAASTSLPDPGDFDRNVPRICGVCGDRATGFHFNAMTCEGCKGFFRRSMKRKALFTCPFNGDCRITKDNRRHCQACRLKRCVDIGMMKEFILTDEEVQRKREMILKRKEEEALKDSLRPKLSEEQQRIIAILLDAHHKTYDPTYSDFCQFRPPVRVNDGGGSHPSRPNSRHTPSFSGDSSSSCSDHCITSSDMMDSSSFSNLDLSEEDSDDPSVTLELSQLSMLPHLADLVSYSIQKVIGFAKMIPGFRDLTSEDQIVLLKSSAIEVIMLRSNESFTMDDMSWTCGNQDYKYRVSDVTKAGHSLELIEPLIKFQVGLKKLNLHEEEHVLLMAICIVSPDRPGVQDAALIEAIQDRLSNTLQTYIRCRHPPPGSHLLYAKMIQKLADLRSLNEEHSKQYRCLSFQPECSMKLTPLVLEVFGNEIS
#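 Compounds are added to VDR with labelled SRC2-3 coactivator peptide and held 2 h at room temperature. Inhibition of the VDR–peptide interaction is then read as a change in fluorescence polarization.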
# Starred values were filed as active, the others as inactive; ? = inconclusive; & = joins results of further samples; [ ] = remark or other dose. % is set by controls: 0 for no effect and ±100 for the full control effect; potency is the fitted concentration of half-maximal effect. Not all compounds are listed; rates above refer to the full screens.
VDR inh,Structure
17%,CCOC(=O)C1/C(=N\O)CC(C)(O)C(C(=O)OCC)C1c1ccc(OC)c(OC)c1 (centres undefined)
0%,COc1ccc(NC(=O)C2CCC(C)(C(=O)O)C2(C)C)cc1 (centres undefined)
-6%,CC(C)[C@@H](CC(=O)N[C@@H]1CCCC[C@H]1C(=O)N[C@H](CC(=O)N[C@@H](CCC(=O)O)CC(=O)O)Cc1ccccc1)NC(=O)C[C@H](Cc1c[nH]c2ccccc12)NC(=O)[C@@H]1CNCC[C@H]1N
3%,CCOC(=O)CCCCC(=O)c1[nH]c(=O)[nH]c1CSc1nc(-c2ccccc2)c(C#N)c(=O)[nH]1
-1%,CCN(C(=O)Cn1c(C(=O)OC)cc2oc3ccccc3c21)c1cccc(C)c1
1%,COc1ccc(C2=NCCc3cc(OC)c(OC)cc32)cc1
1%,CC(C)(C)c1csc(NC(=O)CSC2=NCCS2)n1
2%,O=C(NC1CC2CCCC(C1)N2C(=S)Nc1ccccc1)C1CC1 (centres undefined)
1%,COC(=O)C1=C(C)NC(=O)C1(Nc1nccs1)C(F)(F)F (centres undefined)
6%,Cc1c(Cl)c([N+](=O)[O-])nn1CCCC(=O)NCCc1ccccc1
-18%,O=C(Cn1nnc(-c2ccccc2)n1)NCc1ccc2c(c1)OCO2
-5%,Cc1cc(S(=O)(=O)NCCCN2CCOCC2)ccc1Br
1%,CCS(=O)(=O)N1CCN(c2ccc([N+](=O)[O-])c(N3CCOCC3)c2)CC1
-14%&-28%&-11%&7%,COC(=O)C(c1ccccc1Cl)N1CCc2sccc2C1 (centres undefined)
11%,Cc1cccc(C(=O)Nc2ccccc2SCC2CSc3nc4ccccc4c(=O)n32)c1 (centres undefined)
16%,CCOc1ccc(C(=O)NCc2ccc3c(c2)CCN3C(=O)c2ccccc2)cc1
7%,O=C(c1ccc2oc(CCCc3ccccc3)nc2c1)N1CCCCC1CO (centres undefined)
-4%,COc1ccc(/C=c2\sc3nc(=O)c(C)nn3c2=O)c(OC)c1
-7%,Cc1cc(-n2c(SCC(=O)Nc3ccc(F)c(F)c3)nc3n[nH]c(C)c3c2=N)ccc1Cl
0%,CC(C)c1cnc2c(c1SCC(=O)O)c(=O)n(C)c(=O)n2C
-9%,N#Cc1ccc(Sc2nc3ccccc3[nH]2)cc1C#N
-10%,Cc1ccc(NC(=O)C2OCCc3ccccc32)cc1C (centres undefined)
-3%,CC1CCCC(NC(=O)CNCc2ccccc2F)C1C (centres undefined)
0%,CCOC(=O)N1CCC(N2Cc3cccc(C(=O)NCc4ccc(C)cc4)c3C2=O)CC1
8%,CNC(=O)NC(=O)C(C)OC(=O)c1ccc(Cl)c(S(=O)(=O)Nc2ccc(F)cc2)c1 (centres undefined)
4%,Clc1ccc(Cc2nnc(-c3ccccc3Br)o2)cc1
6%,C=CCC(CC=C)(NC(=O)c1ccccc1C)c1ccccc1
-4%,COc1ccc(CNC(=O)c2cc(C)nn2-c2ccccc2)cc1
79µM*,Cc1cc2ccccc2n1CCNC(=O)c1ccc(Br)o1
-6%,CCOc1cccc(NC(=O)CC#N)c1
-4%,C[C@H](CCCC(C)(C)O)[C@H]1CC[C@H]2[C@@H]3CC=C4C[C@@H](O)CC[C@]4(C)[C@H]3CC[C@]12C
31%[activator],Cc1ccccc1-n1c(C)nnc1SCC(=O)NCC1CCCO1 (centres undefined)

# In another format: entries from further up.
molecule: C[C@H](CCCC(C)(C)O)[C@H]1CC[C@H]2[C@@H]3CC=C4C[C@@H](O)CC[C@]4(C)[C@H]3CC[C@]12C
  VDR inh: -4%
molecule: C=CCC(CC=C)(NC(=O)c1ccccc1C)c1ccccc1
  VDR inh: 6%
molecule: Cc1ccccc1-n1c(C)nnc1SCC(=O)NCC1CCCO1 (centres undefined)
  VDR inh: 31%[activator]
molecule: Cc1cc2ccccc2n1CCNC(=O)c1ccc(Br)o1
  VDR inh: 79µM*

# The listing continues.
VDR inh,Structure
-8%,Cc1nc(Cl)c2oc3ccccc3c2n1
-6%,O=C(CN1C(=O)NC2(CCCC2)C1=O)Nc1ccccc1F
-5%,Cc1nn2c(N3CCCC3)cc(C(C)C)nc2c1-c1ccccc1
-7%,Cc1cc(C)n(C(C)CC(=O)NCc2ccc(N(C)C)cc2)n1 (centres undefined)
-11%,Cc1cccnc1Nc1ncnc(N)c1[N+](=O)[O-]
6%,O=C1NC(=O)/C(=C/c2cccc3ccccc23)S1
12%,N#CCCN(C(=O)COC(=O)CCc1c[nH]c2ccccc12)c1ccccc1
0%,O=C(Nc1c(Cl)cc([N+](=O)[O-])cc1Cl)c1cc(Cl)ccc1O
13%,COc1ccc(CCN2C(=O)CSC2=S)cc1OC
3%,CSc1nnc(-c2cccs2)n1C
8%,CSc1nsc(SCC(=O)Nc2nc3ccc(C)cc3s2)n1
-10%,CCOc1ccc(N/C(=N/c2nc(C)cc(C)n2)NC(=O)CC)cc1
-9%,O=S(=O)(c1ccccc1)N1CCN(C(=S)Nc2ccccc2Cl)CC1
-7%&-16%,CCCCN(C)CCNC(=O)c1nn(-c2ccc(OC)cc2)c(=O)c2c1c1ccccc1n2C
?,COc1ccccc1N1CCN(CCCCN2C(=O)C3CCCCN3C2=O)CC1 (centres undefined)
-20%,O=C(CCCOc1ccccc1)N1CCN(S(=O)(=O)c2ccccc2)CC1

# An excerpt from above in order of heavy-atom count, smallest number first:
VDR inh,Structure
13%,COc1ccc(CCN2C(=O)CSC2=S)cc1OC
8%,CSc1nsc(SCC(=O)Nc2nc3ccc(C)cc3s2)n1
-7%&-16%,CCCCN(C)CCNC(=O)c1nn(-c2ccc(OC)cc2)c(=O)c2c1c1ccccc1n2C

# Following part:
VDR inh,Structure
-8%,O=C(CN1C(=O)/C(=C/c2ccc(F)cc2)SC1=S)NC1C=CS(=O)(=O)C1 (centres undefined)
-3%,Cc1cccc(N(C)C(=O)C2CCCN2S(=O)(=O)c2cccc3nsnc23)c1 (centres undefined)
-15%,OCCNc1ncnc2c1c(-c1ccccc1)c(-c1ccccc1)n2Cc1ccco1
9%,Cc1nn(C(=O)Cn2cc([N+](=O)[O-])cn2)c(C)c1Cl
-5%,CCn1cnc2c1c(=O)[nH]c(=O)n2Cc1ccccc1
9%,CCC(CO)Nc1ncnc2c1cnn2-c1ccc(Cl)cc1 (centres undefined)
-22%,CN(C)c1ccc(-c2nnc(-c3ccc(S(=O)(=O)C(F)F)cc3)o2)cc1
10%,CCCCNC(=O)CSc1nc2ccccc2c(=O)n1C1CCCC1
3%,COc1ccc(C)cc1N(CC(=O)NCCSCc1ccco1)S(=O)(=O)c1ccc(C)cc1
-16%,Cc1onc(C(=O)NCCc2ccccc2)c1[N+](=O)[O-]
-8%,Cc1cnc(NC(=O)Nc2ccc(Cl)cc2)s1
-9%,CC1=C(C)C(C)=C(C#N)C(=C(C#N)C#N)N1
-12%,COc1cc(/C=N/NC(=O)C(=O)/C=C2\NC(C)(C)Cc3ccccc32)ccc1O
-15%,O=C(NN=C1CCCCC1)c1ccccc1-n1cccc1
-20%,Cc1cccc(N2CCN(C(=O)c3ccc4c(c3)OCCO4)CC2)c1C
-3%,CCCCCCOc1ccc(NC(=O)CC2C(=O)N(CC)C(=S)N2Cc2ccco2)cc1 (centres undefined)
10%,Cc1ccc(Sc2c(C(=O)NCc3ccccc3C)[nH]c3ccccc23)cc1
-3%,Cn1c(CN(O)S(=O)(=O)c2ccc(Cl)cc2)nnc1C(F)(F)F
-2%,COc1ccc2c(c1)-c1nc(NC(=O)c3ccco3)sc1CC2
-6%,COC(=O)c1ccc(NC(=O)Nc2ccc(F)cc2F)cc1
7%,O=C(C(c1ccccc1)N1CCOCC1)N1CCOCC1 (centres undefined)
-11%,C/C(=N/NC(=O)c1cc(O)c(O)c(O)c1)c1ccc([N+](=O)[O-])cc1
50µM*,Oc1ccc(Br)cc1C1C=C(c2ccc3c(c2)OCO3)NC(c2ccc(F)c(Br)c2)N1 (centres undefined)
-10%,CN1CCN(CCCNC(=O)c2ccc3c(Cl)c4c(nc3c2)CCCC4)CC1
?,CCOCCCNC(=O)c1ccccc1SCC
9%,COc1ccc(CNc2ncnc3cc(OC)c(OC)cc23)cc1OC
-7%,Cc1ccc(C(C)C)c(OCc2ccc(C(=O)N/N=C/c3ccc(O)cc3O)cc2)c1
-1%,COC(=O)c1cc(NS(=O)(=O)c2ccc(NC(C)=O)cc2)ccc1Cl
10%,CC(=O)c1c(N2CCCCC2)nc(=O)n(-c2ccccc2)c1C
2%,O=C(O)C1(Nc2ccc([N+](=O)[O-])cc2[N+](=O)[O-])CCCC1
-14%,CCOC(=O)c1sc(-c2ccccn2)nc1C
-10%,O=C(C1=C[C@H](c2ccc(C(F)(F)F)cc2)C[C@H](OCc2ccc(CO)cc2)O1)N1CCOCC1

# Some of the entries above, reformatted.
SMILES | VDR inh
COc1ccc(CNc2ncnc3cc(OC)c(OC)cc23)cc1OC | 9%
Cc1ccc(C(C)C)c(OCc2ccc(C(=O)N/N=C/c3ccc(O)cc3O)cc2)c1 | -7%
COC(=O)c1cc(NS(=O)(=O)c2ccc(NC(C)=O)cc2)ccc1Cl | -1%
CC(=O)c1c(N2CCCCC2)nc(=O)n(-c2ccccc2)c1C | 10%

# Carrying on.
VDR inh,Structure
-10%,O=C(OCC(=O)N1CCOCC1)c1ccccc1SCC(=O)N1CCCC1
2%,CCN(CC)CCNC(=S)N1CCn2c(nc3ccccc32)C1
3%,O=C1CSC(c2ccc(F)cc2)N1c1ccccc1F (centres undefined)
-9%,Cc1nc2cc(-c3ccccc3)nn2c(N)c1-c1ccccc1
0%,COc1ccccc1N1CCN(C(=O)C2CCN(C(=O)c3ccc(C(C)(C)C)cc3)CC2)CC1
-26%,CCOC(=O)c1c(NC(=O)CCc2ccc(CC)o2)sc(C)c1C
6%,CN(CC(=O)NCC1CCCCC1)S(=O)(=O)c1ccc(F)cc1
-7%,NC(=O)NC(=O)COC(=O)c1cccc(S(=O)(=O)N2CCCCCC2)c1
-4%,Cc1cc(=O)n2nc(N3CCC(C(=O)NCc4cccnc4)CC3)sc2n1
7%,CC(C)(C)C(=O)Nc1ccccc1C(=O)Nc1cc(Cl)ccc1Cl
-8%,CC(C)C(=O)N[C@H]1CCC2C3CC=C4C[C@@H](O)CC[C@]4(C)C3CC[C@@]21C (some centres undefined)
0%,CCOc1ccccc1OCC(=O)Nc1nnc(COC)s1
-3%,COc1ccccc1/C=C/C(=O)OCC(=O)c1c[nH]c2ccccc12
5%,COc1cccc(CNC(=O)CCCc2cn(C)c3ccccc23)c1
-10%,CSCCC(NC(=O)COc1cccc2ccccc12)C(=O)O (centres undefined)
-20%,COc1c(Br)cc(/C=N/n2c(-c3ccccc3)n[nH]c2=S)c(O)c1Br
2%,Cn1cccc1CC(=O)NNC(=S)NC(=O)c1ccccc1Br
-27%,O=C(Nc1ccc(F)cc1F)N1CCCC(c2nc(-c3ccc(F)cc3)no2)C1 (centres undefined)
3%,O=C(Cc1ccc([N+](=O)[O-])cc1)NCc1ccncc1
8%,CC(C)CN(C(=O)CSc1nc2ccccc2c(=O)n1C)C1CCS(=O)(=O)C1 (centres undefined)
-25%,CN(C)S(=O)(=O)c1cccc(NC(=S)N/N=C/C(=O)c2ccccc2)c1
10%,CCOC(=O)COn1c(=O)c(-c2ccc(F)cc2)[n+]([O-])c2ccccc21
-2%,CC1(c2ccccc2)NC(=O)N(CCN2C(=O)c3ccccc3C2=O)C1=O (centres undefined)
-22%,CC(=C\c1ccccc1)/C=C1/SC(=S)N(CCC(=O)O)C1=O
10%,Cc1ccc2cccc(SCC(=O)N3CCOCC3)c2n1
9%,O=C(Nc1ccc(N2CCOCC2)c(Cl)c1)c1cc2ccccc2o1
-3%,COc1ccc(-c2ncccc2OC(=O)C23CC4CC(CC(C4)C2)C3)cc1
4%,OCCN(Cc1ccccc1)CC(O)COc1ccc(-c2ccccc2)cc1 (centres undefined)
1%,Cc1cccc(Nc2nc(OCC#N)nc(N(C)C)n2)c1
0%,COc1ccc(CN(C(=O)COc2ccc(C)c(C)c2)C2CCS(=O)(=O)C2)cc1OC (centres undefined)
-12%,CCCc1cc(=O)[nH]c(SCC(=O)Nc2cc(C)on2)n1
-11%,CCOc1ccc(N2C(=O)C3CCCN3C2=S)cc1 (centres undefined)
6%,OC1(Cc2cc(-c3ccccc3)no2)CCN(CCCc2ccccc2)CC1
-12%,COC(=O)CSc1nc2c(c(-c3ccco3)c1C#N)CCCC2
7%,COc1ccc(Cl)cc1CNCCSc1nnnn1-c1ccccc1
20µM*,CC1=NOC(=O)/C1=C\c1ccc(-c2cc(Cl)ccc2Cl)o1
12%,CC(c1ccccc1)n1c(CO)nc2ccccc21 (centres undefined)
-7%,Cc1cc(NC(=O)c2cccnc2)ccc1NC(=O)c1cc2ccccc2o1
-5%,CC(=O)c1c(C)oc2ccc(N(C(=O)Oc3ccccc3)S(=O)(=O)c3ccc(Br)cc3)cc12
21%,COc1cccc(C(=O)Nc2cc(NC(=O)c3cccs3)ccc2C)c1
-4%,Cc1ccc(C(=O)NCCn2c(C)cc3ccccc32)cc1C
-8%,Cc1nnc2c3ccccc3nc(Nc3ccccc3C(=O)O)n12
-24%,CCN1CCN(c2ncc(C(=O)Nc3cc(Cl)c(OC)cc3OC)c3ccccc23)CC1
13%,COC(=O)Nc1nnc(COc2cccc(C)c2)s1
5%,CCc1ccc(NC(=O)CCS(=O)(=O)c2ccc(Cl)cc2)cc1
-9%,C=CCn1c(SCC(=O)Nc2ccccc2C)nnc1-c1ccncc1
0%,CC(CCc1ccccc1)NC(=O)C(=O)NCCc1ccccc1 (centres undefined)
